From PubChem
Myc binder = binders of human c-Myc | actives 1.5% (n = 17,000) | AID 624141 | small molecule microarray, His-c-Myc binding, anti-His fluorescence | calls only | P01106;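 active = spot fluorescence over background with P-value below 7% in all four replicate spots, showing protein binding; compounds were printed on slides so no solution concentration is given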;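 also: score is binary with 100 for all four spots passing and 0 otherwise; about 2 pmol printed per array spot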
ID4 binder = binders of human ID4 protein; P47928; small molecule microarray, Flag-ID4 binding, fluorescence F/B; calls only; actives 1.2% (n = 31,000); AID 624137;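 active = spot signal over background at p below 0.07 in all four prints; compounds were printed on slides so no solution concentration is given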;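 also: a binder raises fluorescence above local background on the spot; about 2 pmol printed per array spot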
Target sequence (P47928 whole entry, looked up): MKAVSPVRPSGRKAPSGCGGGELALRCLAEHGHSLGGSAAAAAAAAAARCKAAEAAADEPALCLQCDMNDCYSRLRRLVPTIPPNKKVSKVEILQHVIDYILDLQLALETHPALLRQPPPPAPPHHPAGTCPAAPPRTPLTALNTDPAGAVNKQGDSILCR
STAT3 binder = binds human STAT3 on microarray | calls only | Small molecule microarray, His-STAT3 binding, anti-His fluorescence | actives 0.2% (n = 17,000) | P40763;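 active = compounds whose four printed spots each show fluorescence over background unusually high for their array block, chance value under 7%; compounds were printed on slides so no solution concentration is given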;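 also: about 2 pmol printed per array spot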
Target sequence (P40763 whole entry, looked up): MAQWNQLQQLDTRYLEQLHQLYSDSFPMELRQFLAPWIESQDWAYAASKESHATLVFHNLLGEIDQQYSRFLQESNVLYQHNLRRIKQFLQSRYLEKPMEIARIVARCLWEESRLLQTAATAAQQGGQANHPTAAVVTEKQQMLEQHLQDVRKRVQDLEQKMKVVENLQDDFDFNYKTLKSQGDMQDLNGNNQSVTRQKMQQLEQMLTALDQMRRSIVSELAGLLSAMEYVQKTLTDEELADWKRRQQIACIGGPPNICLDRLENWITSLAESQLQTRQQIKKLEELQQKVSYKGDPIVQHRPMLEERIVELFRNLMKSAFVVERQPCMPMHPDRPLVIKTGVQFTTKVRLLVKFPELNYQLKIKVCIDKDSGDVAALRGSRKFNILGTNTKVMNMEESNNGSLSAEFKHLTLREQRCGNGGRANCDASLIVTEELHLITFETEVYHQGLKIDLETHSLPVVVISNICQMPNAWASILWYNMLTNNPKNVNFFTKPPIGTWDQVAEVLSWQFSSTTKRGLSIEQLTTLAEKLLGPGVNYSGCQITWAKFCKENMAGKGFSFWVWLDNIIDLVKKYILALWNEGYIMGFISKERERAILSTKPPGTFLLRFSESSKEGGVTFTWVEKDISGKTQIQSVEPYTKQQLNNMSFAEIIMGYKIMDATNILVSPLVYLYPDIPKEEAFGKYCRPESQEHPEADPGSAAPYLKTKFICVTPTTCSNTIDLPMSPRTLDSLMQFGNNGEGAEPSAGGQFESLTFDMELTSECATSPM
p53 mut binder = binders of human mutant p53; small molecule microarray binding, anti-GST fluorescence; calls only; actives 0.4% (n = 17,000); AID 624136;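 active = compounds whose four printed spots each glow above background more than chance allows, each with a p-value under 7%; compounds were printed on slides so no solution concentration is given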;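 also: about 2 pmol printed per array spot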
Calls only; i = inactive; / = not tested or not shown; + = active, no number.

SMILES	Myc binder	ID4 binder	STAT3 binder	p53 mut binder
C[C@@H]1CN([C@@H](C)CO)C(=O)c2cccc(NC(=O)c3cnccn3)c2O[C@@H]1CN(C)C(=O)Nc1ccccc1	i	i	i	i
COc1cc(O)c2c(=O)c(O[C@@H]3O[C@@H](CO)[C@H](O)[C@H]3O[C@@H]3O[C@@H](C)[C@H](O)[C@@H](O)[C@H]3O)c(-c3ccc(O)cc3)oc2c1	i	/	i	i
O=C(NCc1ccccc1)C1=C[C@@H](c2csc3ccccc23)C[C@@H](OCc2ccc(CO)cc2)O1	i	i	i	i
O=C(Nc1cccc(CCc2ccccn2)c1)c1ccc(Cl)cc1	i	i	i	i
COc1ccc(COCC23N=C4SCCCN4[C@H](c4ccccc4O2)[C@H]3COC(=O)c2ccccc2)cc1	i	i	i	i
C=CCN1C(=O)[C@@]2(O[C@@H](CCO)[C@H]([Si](C)(C)c3ccc(OC)cc3)[C@H]2C)c2cc(I)ccc21	i	i	i	i
O=C1CC[C@@H]2c3[nH]c4ccc(Br)cc4c3CCN12	i	i	i	i
CS(=O)(=O)N(CC(=O)Nc1ccccc1Sc1ccccc1)c1ccc(F)cc1	i	i	i	i
NC(=O)CSc1nnc(-c2cccs2)n1-c1ccccc1	i	i	i	i
CNC[C@H]1Oc2ccc(NC(=O)Cc3cn(C)c4ccccc34)cc2CC(=O)N([C@H](C)CO)C[C@H]1C	i	i	i	i
C[C@H]1CN([C@@H](C)CO)C(=O)c2cccc(NS(C)(=O)=O)c2O[C@@H]1CN(C)C(=O)Nc1cccc2ccccc12	i	i	i	i
Nc1nc(SCc2nnc(Nc3ccccc3)s2)nc2sc3c(c12)CCC3	i	i	i	i
CCn1c(=O)[nH]c2cc(Cl)c(Cl)cc21	i	i	i	i
C[C@H]1CN([C@@H](C)CO)C(=O)c2cc(NC(=O)CCCN(C)C)ccc2O[C@H]1CN(C)C	i	i	i	i
O=C(C1=C[C@H](c2coc3ccccc3c2=O)C[C@H](OCCCCO)O1)N1CCCCCCC1	i	i	i	i
C[C@H](CO)N1C[C@H](C)[C@@H](CN(C)Cc2ccc3c(c2)OCO3)Oc2ccc(N(C)C)cc2CC1=O	i	i	i	i
C[C@H]1CN([C@@H](C)CO)C(=O)Cc2cc(NC(=O)Nc3ccccc3)ccc2O[C@H]1CN(C)C(=O)Nc1ccccc1	i	i	i	i
C[C@@H]1CCCCO[C@@H](CN(C)C(=O)Nc2ccccc2)[C@H](C)CN([C@H](C)CO)C(=O)c2cc(N(C)C)ccc2O1	i	i	i	i
CO[C@H]1O[C@H](CO)[C@@H](OC(=O)CCc2ccccc2)[C@H](OC(=O)c2cc3ccccc3[nH]2)[C@H]1OC(=O)c1cc2ccccc2[nH]1	i	/	i	i
C[C@@H]1CN([C@H](C)CO)C(=O)Cc2cc(NS(C)(=O)=O)ccc2O[C@@H]1CN(C)C(=O)NC1CCCCC1	i	i	i	i
Cc1noc(C)c1NC(=O)Nc1cccc2c1O[C@@H](CN(C)S(=O)(=O)c1ccc(Cl)cc1)[C@@H](C)CN([C@H](C)CO)C2=O	i	i	i	i
C[C@H](CO)N1C[C@H](C)[C@@H](CN(C)C(=O)C2CC2)OCc2cn(nn2)CCCC1=O	i	i	i	i
COCCOC(=O)N1C(=O)[C@@]2(c3cc(C#Cc4ccc(OC)cc4)ccc31)[C@H](c1ccc(OCCO)cc1)N1[C@H](c3ccccc3)[C@H](c3ccccc3)OC(=O)[C@H]1[C@@H]2C(=O)NC[C@H](O)c1ccccc1	i	i	i	i
C[C@@H]1CN([C@@H](C)CO)C(=O)Cc2cc(NC(=O)NC3CCCCC3)ccc2O[C@@H]1CN(C)S(=O)(=O)c1cn(C)cn1	i	i	i	i
CC12CC(c3ccoc3)OC(=O)C1CCC1(C)C2C2OC(=O)C1(O)C1OC21 (stereo unspecified)	i	/	i	i

More results follow.
SMILES	Myc binder	ID4 binder	STAT3 binder	p53 mut binder
O=C(/C=C/c1ccccc1)NC(NC(=S)Nc1cccc2cccnc12)C(Cl)(Cl)Cl (stereo unspecified)	i	i	i	i
O=S(=O)(N[C@@H]1CCCN(Cc2ccc(OCCO)cc2)C1)c1ccc(Cl)cc1	i	+	i	i
C[C@H](CO)N1C[C@H](C)[C@H](CN(C)S(=O)(=O)c2ccccc2)Oc2ncc(/C=C/c3ccccc3)cc2C1=O	i	i	i	i
Cc1cc(C(=O)Nc2cccc3c2O[C@H](CN(C)C(=O)Nc2ccccc2)[C@H](C)CN([C@H](C)CO)C3=O)n(C)n1	i	i	i	i
C[C@H]1CN([C@@H](C)CO)C(=O)Cc2cc(NS(C)(=O)=O)ccc2O[C@H]1CN(C)C(=O)NC1CCCCC1	i	i	i	i
C[C@@H]1CN([C@@H](C)CO)C(=O)c2cccc(NS(=O)(=O)c3ccc(Cl)cc3)c2O[C@H]1CN(C)Cc1ccc(C(=O)O)cc1	i	i	i	i
C=CCOC(=O)[C@H]1[C@@H]2C(=O)O[C@@H](c3ccccc3)[C@@H](c3ccccc3)N2[C@@H](c2ccc(OCCOC(=O)[C@@H]3C[C@@H]4C(=O)NCC(=O)N4[C@@H]3c3ccc(O)cc3)cc2)[C@]12C(=O)Nc1ccccc12	i	i	i	i
C[C@@H]1CN([C@@H](C)CO)C(=O)c2cc(N(C)C)ccc2O[C@H]1CN(C)Cc1ccncc1	i	i	i	i
COCCCNC(=O)[C@@]1(Cc2ccccc2CN=[N+]=[N-])N=C(c2ccc(OCCCO)cc2)O[C@H]1c1ccccc1	i	/	i	i
C[C@@H]1CN([C@@H](C)CO)C(=O)c2cccc(NS(=O)(=O)c3ccc(Cl)cc3)c2O[C@H]1CN(C)C(=O)Nc1ccc(F)cc1	i	i	i	i
C[C@@H]1CCCCO[C@H](CN(C)C(=O)Cc2ccccc2)[C@@H](C)CN([C@H](C)CO)C(=O)c2cc(NC(=O)Nc3ccccc3)ccc2O1	i	i	i	i
C[C@H](CO)N1C[C@H](C)[C@@H](CN(C)C(=O)Nc2ccccc2)OCCCC[C@H](C)Oc2ccc(NC(=O)CCC(F)(F)F)cc2C1=O	i	i	i	i
CCOC(=O)c1ccc(Cn2c(-c3ccccc3)nnc2-c2ccccc2)o1	i	i	i	i
C[C@H](CO)N1C[C@H](C)[C@@H](CN(C)C(=O)Nc2ccccc2)Oc2ccc(NS(C)(=O)=O)cc2CC1=O	i	i	i	i
C[C@H]1CN([C@@H](C)CO)C(=O)c2cccc(NS(C)(=O)=O)c2O[C@@H]1CN(C)C(=O)Nc1ccccc1	i	i	i	i
COc1ccc(S(=O)(=O)Nc2ccc3c(c2)C(=O)N([C@H](C)CO)C[C@H](C)[C@H](CN(C)S(=O)(=O)c2ccc(OC)cc2)O3)cc1	i	i	i	i
Cc1cccc(Nc2nc(N)nc(CSc3nccc(C)n3)n2)c1	i	i	i	i
C[C@H]1CN([C@@H](C)CO)C(=O)c2cc(NS(=O)(=O)c3cn(C)cn3)ccc2O[C@@H]1CN(C)C	i	i	i	i
C[C@@H]1CN([C@H](C)CO)C(=O)c2cc(NS(=O)(=O)c3ccccc3)ccc2O[C@@H](C)CCCCO[C@H]1CN(C)C(=O)Nc1ccc(F)cc1	i	i	i	i
C[C@@H]1CN([C@@H](C)CO)C(=O)c2cccc(NS(C)(=O)=O)c2O[C@@H]1CN(C)C(=O)Nc1ccc(C(F)(F)F)cc1	i	i	i	i
CC(C)Oc1ccc2c(=O)cc(-c3ccccc3)oc2c1	i	/	i	i
COc1ccc(OC)c(S(=O)(=O)NCCO)c1	i	i	i	i
C[C@H](CO)N1C[C@H](C)[C@H](CN(C)C(=O)Nc2ccc3c(c2)OCO3)OCc2cn(nn2)CCCC1=O	i	i	i	i
C[C@@H]1CN([C@@H](C)CO)C(=O)Cc2cc(NS(=O)(=O)c3ccccc3)ccc2O[C@@H]1CN(C)S(=O)(=O)c1cccs1	i	i	i	i
COc1cc2c(c3c1C(=O)C[C@H](c1ccccc1)O3)C=CC(C)(C)O2	i	/	i	i

A portion taken from the entries so far, as a working copy:
SMILES	Myc binder	ID4 binder	STAT3 binder	p53 mut binder
O=C(/C=C/c1ccccc1)NC(NC(=S)Nc1cccc2cccnc12)C(Cl)(Cl)Cl (stereo unspecified)	i	i	i	i
O=S(=O)(N[C@@H]1CCCN(Cc2ccc(OCCO)cc2)C1)c1ccc(Cl)cc1	i	+	i	i
C[C@H](CO)N1C[C@H](C)[C@H](CN(C)S(=O)(=O)c2ccccc2)Oc2ncc(/C=C/c3ccccc3)cc2C1=O	i	i	i	i
Cc1cc(C(=O)Nc2cccc3c2O[C@H](CN(C)C(=O)Nc2ccccc2)[C@H](C)CN([C@H](C)CO)C3=O)n(C)n1	i	i	i	i
C[C@H]1CN([C@@H](C)CO)C(=O)Cc2cc(NS(C)(=O)=O)ccc2O[C@H]1CN(C)C(=O)NC1CCCCC1	i	i	i	i
C[C@@H]1CN([C@@H](C)CO)C(=O)c2cccc(NS(=O)(=O)c3ccc(Cl)cc3)c2O[C@H]1CN(C)Cc1ccc(C(=O)O)cc1	i	i	i	i
C=CCOC(=O)[C@H]1[C@@H]2C(=O)O[C@@H](c3ccccc3)[C@@H](c3ccccc3)N2[C@@H](c2ccc(OCCOC(=O)[C@@H]3C[C@@H]4C(=O)NCC(=O)N4[C@@H]3c3ccc(O)cc3)cc2)[C@]12C(=O)Nc1ccccc12	i	i	i	i

Molecules shown so far that have a thiophene ring, fused or not, in the order listed:
SMILES	Myc binder	ID4 binder	STAT3 binder	p53 mut binder
O=C(NCc1ccccc1)C1=C[C@@H](c2csc3ccccc23)C[C@@H](OCc2ccc(CO)cc2)O1	i	i	i	i
NC(=O)CSc1nnc(-c2cccs2)n1-c1ccccc1	i	i	i	i
Nc1nc(SCc2nnc(Nc3ccccc3)s2)nc2sc3c(c12)CCC3	i	i	i	i
C[C@@H]1CN([C@@H](C)CO)C(=O)Cc2cc(NS(=O)(=O)c3ccccc3)ccc2O[C@@H]1CN(C)S(=O)(=O)c1cccs1	i	i	i	i

Remaining list, next part:
SMILES	Myc binder	ID4 binder	STAT3 binder	p53 mut binder
COc1ccc(S(=O)(=O)N(C)C[C@@H]2Oc3c(NC(=O)C4CCOCC4)cccc3C(=O)N([C@H](C)CO)C[C@H]2C)cc1	i	i	i	i
Cc1cccc(NC(=O)CSc2nc3sc4c(c3c(=O)[nH]2)CCCC4)c1	i	i	i	i
O=C(CSc1nnc(-c2ccccc2O)n1-c1ccccc1)Nc1ccccc1Cl	i	i	i	i
O=C(NC(=S)Nc1cccc(-c2ccc(CO)o2)c1)c1cc2ccccc2o1	i	i	i	i
CCCC[C@H]1OB(O)C[C@H]2C1=C(COc1ccccc1)C[C@H]1C(=O)N(Cc3ccccc3)C(=O)[C@H]12	i	i	i	i
Cc1ccc(NC(=O)CSc2nc(O)c(C)c(=O)n2-c2ccccc2F)c(C)c1	i	i	i	i
CCn1ccc(CNC(=O)Nc2cccc(C(F)(F)F)c2)n1	i	i	i	i
C[C@H]1CCCCO[C@H](CN(C)S(=O)(=O)c2ccccc2)[C@@H](C)CN([C@@H](C)CO)C(=O)c2cc(NC(=O)CCCN(C)C)ccc2O1	i	i	i	i
C[C@H](CO)N1C[C@H](C)[C@@H](CN(C)C(=O)Nc2ccc(F)cc2)Oc2ccc(NC(=O)Nc3ccc(F)cc3)cc2C1=O	i	i	i	i
C[C@@H]1CN([C@@H](C)CO)C(=O)c2cc(NS(=O)(=O)c3ccc(Cl)cc3)ccc2O[C@H]1CN(C)C	i	i	i	i
CC(C)NC(=O)Nc1ccc2c(c1)C(=O)N([C@@H](C)CO)C[C@H](C)[C@H](CN(C)S(=O)(=O)c1cn(C)cn1)OCCCC[C@H](C)O2	i	i	i	i
C[C@@H]1CN([C@@H](C)CO)C(=O)Cc2cc(NC(=O)CCN3CCOCC3)ccc2O[C@H]1CN(C)S(=O)(=O)c1cccs1	i	i	i	i
C[C@@H]1CN([C@@H](C)CO)C(=O)Cc2cc(NC(=O)Cc3ccccc3)ccc2O[C@H]1CN(C)CC1CC1	i	i	i	i
C[C@@H]1CN([C@@H](C)CO)C(=O)c2cccc(NC(=O)c3cnccn3)c2O[C@H]1CN(C)S(=O)(=O)c1cn(C)cn1	i	i	i	i
C[C@H](CO)N1C[C@H](C)[C@H](CN(C)C(=O)Nc2ccc3c(c2)OCO3)Oc2ccc(NC(=O)NC3CCCCC3)cc2C1=O	i	i	i	i
S=C(NC1CCCCC1)N1CCC(C2C=NC=N2)CC1 (stereo unspecified)	i	/	i	i
Cc1noc(C)c1S(=O)(=O)Nc1cccc2c1O[C@H](CN(C)C)[C@H](C)CN([C@@H](C)CO)C2=O	i	i	i	i
C[C@@H]1CN([C@@H](C)CO)C(=O)c2cccc(NS(=O)(=O)c3cn(C)cn3)c2O[C@H]1CN(C)C	i	i	i	i
COc1ccc(S(=O)(=O)N(C)C[C@@H]2Oc3ccc(NC(=O)Nc4ccc5c(c4)OCO5)cc3CC(=O)N([C@H](C)CO)C[C@@H]2C)cc1	i	i	i	i
C[C@H]1CCCCO[C@H](CN(C)Cc2ccccc2)[C@@H](C)CN([C@@H](C)CO)C(=O)c2cc(NS(=O)(=O)c3ccccc3)ccc2O1	i	i	i	i
CCOc1ccccc1NC(=O)C1CC(=O)n2ncnc2N1 (stereo unspecified)	i	i	i	i
O=C(Nc1ccccc1)C1=C[C@H](c2coc3ccccc3c2=O)C[C@H](OCCCCO)O1	i	i	i	i
Cn1c(SCC(=O)NC23CC4CC(CC(C4)C2)C3)nnc1-c1cccc([N+](=O)[O-])c1	i	i	i	i
C[C@H](CO)N1C[C@H](C)[C@H](CN(C)S(=O)(=O)c2ccc(F)cc2)Oc2ncccc2C1=O	i	i	i	i
CNCC(O)Cn1c2ccccc2c2ccccc21 (stereo unspecified)	i	i	i	i

The list is partial. The share of hits here may be higher or lower than overall.
